PV pol inh = inhibitors of poliovirus RNA polymerase binding and polymerization | AID 588519 | P03300 | % elongation, % (compound at 16.7 µg/mL) | poliovirus polymerase elongation, fluorescence polarization; stronger effect = lower value | actives 0.66% (n = 150,000); in the data active = % elongation below about 90%; note: some results filed as inactive read as strong as hits
Target sequence (P03300 1749-2209 limits assumed): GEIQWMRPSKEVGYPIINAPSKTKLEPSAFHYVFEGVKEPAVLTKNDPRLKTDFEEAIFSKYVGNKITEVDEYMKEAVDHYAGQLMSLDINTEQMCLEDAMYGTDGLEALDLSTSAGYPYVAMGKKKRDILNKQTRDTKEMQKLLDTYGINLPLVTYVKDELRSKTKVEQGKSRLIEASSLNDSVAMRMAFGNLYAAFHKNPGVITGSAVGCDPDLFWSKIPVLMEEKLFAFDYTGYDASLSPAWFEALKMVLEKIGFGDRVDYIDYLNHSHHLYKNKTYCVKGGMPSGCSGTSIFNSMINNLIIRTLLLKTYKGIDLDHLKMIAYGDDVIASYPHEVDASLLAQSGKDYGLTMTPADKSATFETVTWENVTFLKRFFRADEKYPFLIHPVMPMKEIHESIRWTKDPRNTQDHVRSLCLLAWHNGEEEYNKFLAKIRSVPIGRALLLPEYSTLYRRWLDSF
PV pol inh intensity = recorded beside PV pol inh, whose call it bears; % elongation; measured here: total intensity read-out; formula for this scale not given here;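 total fluorescence in place of polarization; lower means less elongation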
Numbers without * were called inactive. This is a subset, so the mix of outcomes need not match the whole.

SMILES	PV pol inh	PV pol inh intensity
COc1ccccc1N1CCN(C(=O)Cn2ncc3c([nH]c4ccccc43)c2=O)CC1	110	111
COc1ccc(NC(=O)CSc2nc3ccncc3[nH]2)c(OC)c1	106	101
CCOC(=O)N1CCC(NC(=O)c2cnn(-c3ccc(F)cc3F)c2C2CCN(C(=O)OC(C)(C)C)CC2)CC1	103	106
N#C/C(=C/c1cn(Cc2ccccc2Cl)c2ccccc12)C(=O)Nc1cccc(Cl)c1	106	110
CCn1c(C(=O)N2CCC(C(=O)N3CCN(c4cccc(C)c4C)CC3)CC2)cc2sccc21	104	107
COc1ccc(OC)c(NC(=O)CSC2=Nc3ccccc3C3=NC(CCC(=O)NCc4ccccc4)C(=O)N23)c1 (centres undefined)	100	111
Cc1ccc(CCNC(=O)CSCc2nc(-c3ccc(C)cc3)oc2C)cc1	107	106
CCOC(=O)C1CCC(CN(Cc2ccc(Cl)cc2)S(=O)(=O)c2cc(Cl)cc(Cl)c2)CC1 (centres undefined)	107	107
CN(C)c1ccc(CNC(=O)C2CCCN(S(=O)(=O)c3ccc4c(c3)CCCC(=O)N4)C2)cc1 (centres undefined)	98	96
O=C(CSc1nnc(CNC(=O)c2ccccc2)n1-c1ccc(F)cc1)Nc1ccccc1F	99	105
COc1ccc(C(=O)c2oc3ccccc3c2NC(=O)c2nc(SC)ncc2Cl)cc1Cl	120	118
Cc1ccc(NC(=O)c2ccc(CNS(=O)(=O)c3ccc4c(c3)C(C)(C)C(=O)N4C)cc2)cc1C	115	112

Whole records as entered above. Screens in order: PV pol inh, PV pol inh intensity
Cc1ccc(NC(=O)c2ccc(CNS(=O)(=O)c3ccc4c(c3)C(C)(C)C(=O)N4C)cc2)cc1C as listed: 115, 112
COc1ccc(NC(=O)CSc2nc3ccncc3[nH]2)c(OC)c1 as listed: 106, 101

(cont.)
SMILES	PV pol inh	PV pol inh intensity
CCOc1ccc(-c2nnc(SCC(=O)NC3CCCCC3)nc2-c2ccc(OCC)c(OC)c2)cc1OC	106	112
CCOc1ccc(C(=O)c2oc3ccccc3c2NC(=O)c2cc(-c3ccc(Cl)cc3)on2)cc1	104	103
Cc1cccc(-c2nc(SCCCOc3cc(C)c(Cl)c(C)c3)n3[nH]c(=O)cc3n2)c1	103	112
CCN1C(=O)c2ccccc2S(=O)(=O)c2ccc(C(=O)NCc3ccc(C)cc3)cc21	103	107
COC(=O)COc1ccc(Oc2nc(NC(C)(C)C)nc(N(C)C)n2)nn1	101	98
CC(C)Oc1ccc(C(=O)NCC(c2ccc(N(C)C)cc2)N2CCCC2)cc1 (centres undefined)	105	116
Cc1ccc(NC(=O)Cn2cc(S(=O)(=O)N3CCC(C)CC3)c3ccccc3c2=O)c(Br)c1	108	111
COc1ccc(NC(=O)Cn2c3ncccc3c(=O)n2-c2ccc(C)c(C)c2)c(OC)c1	104	103
Cc1ccc(CNC(=O)c2cnn(-c3ccc(F)cc3F)c2C2CCN(C(=O)OC(C)(C)C)CC2)cc1	107	113
COc1cccc(/C=C/c2nc3ccccc3c(=O)n2-c2ccc(C)c(C)c2)c1OC	114	114
Cc1oc(-c2ccccc2Cl)nc1CS(=O)(=O)CC(=O)NC(C)CCc1ccccc1 (centres undefined)	100	103
COc1ccc(OC)c(CNC(=O)c2c(C)oc3ncn(C)c(=O)c23)c1	108	109
CCN(C(=O)Cc1nc(-c2ccc(OC)cc2)no1)c1cccc(Cl)c1	106	109
Cc1ccc2nc(COc3cccc(NC(=O)c4cccc(Cl)c4)c3)cc(=O)n2c1	106	116
COc1ccc2c(c1)c1c(c(=O)n(-c3ccc(F)c(Cl)c3)c(=O)n1Cc1cccc(C)c1)n2C	105	107
CCOc1ccc(Br)cc1C1C(C(=O)Nc2ccccc2OC)=C(C)Nc2nnnn21 (centres undefined)	101	105
CC(C)c1ccc(C(=O)Nc2ccc(-c3nc4ccccc4s3)c(Cl)c2)cc1	100	96
Cn1cnnc1SCC(=O)Nc1cc(C(=O)O)cc(C(=O)O)c1	98	103
CCOc1ccc(NC(=O)c2nnn(-c3ccc(F)c(Cl)c3)c2C)cc1	109	115
CCCCN(CCCC)S(=O)(=O)c1ccc(NC(=O)c2c(-c3ccccc3)noc2C)cc1	103	103
O=C(Nc1ccc2nc(SCC(=O)N3CCCC3)sc2c1)c1cccc(F)c1	108	109
COc1ccc(C(=O)Nc2ccc3nc4c(c(Nc5ccccc5OC)c3c2)CCCC4)c(OC)c1	103	98
Cc1cccc(N2CCn3c2nc2c3c(=O)n(CCc3ccccc3)c(=O)n2C)c1	109	102
COC(=O)c1cccnc1-n1c(=O)c2cccnc2n(CC(=O)Nc2cccc(C(F)(F)F)c2)c1=O	106	105
COc1ccc(OC)c(NC(=O)C2CCCN(S(=O)(=O)c3c(C)nn(C)c3C)C2)c1 (centres undefined)	103	105
CCCCNC(=O)CCCn1c(=O)c2ccccc2n(Cc2ccccc2C)c1=O	103	105
O=C(Nc1ccccc1)c1ccc(Br)c(S(=O)(=O)N2CCCCC2)c1	114	120
CC(=O)C1=C(c2ccc(C)cc2)N(C(C)=O)n2c(nnc2-c2ccccc2)S1	108	103
Cc1cc(OC(C)C(=O)N2CCC(c3nc4ccccc4o3)CC2)ccc1Cl (centres undefined)	100	106
CCCCN(CC)CCCNC(=O)c1cn(C)c2ccc(S(=O)(=O)N(C)C3CCCCC3)cc2c1=O	103	105
Cc1cccc(N2C(=O)C(CC(=O)Nc3ccc(F)cc3)N(C3CCCC3)C2=O)c1 (centres undefined)	113	107
CCc1ccc(-c2nc3ccc(Br)cc3c(C(=O)O)c2C)s1	107	107
CCOC(=O)c1cnc2c(ccc3ccccc32)c1Nc1cccc(Cl)c1	106	109
COc1ccccc1CNC(=O)CC(c1ccc(F)cc1)N1Cc2ccccc2C1=O (centres undefined)	101	106
CCc1cccc(CC)c1NC(=O)Cn1nnc2sc3c(c2c1=O)CCCC3	108	105
CCc1ccc(-n2nc(C)c3c2NC(=O)CSC3c2ccc(OC)cc2OC)cc1 (centres undefined)	110	115

Sorted by length of the SMILES (low to high): 19 of the compounds above
SMILES	PV pol inh	PV pol inh intensity
Cn1cnnc1SCC(=O)Nc1cc(C(=O)O)cc(C(=O)O)c1	98	103
CCOC(=O)c1cnc2c(ccc3ccccc32)c1Nc1cccc(Cl)c1	106	109
Cc1ccc(CCNC(=O)CSCc2nc(-c3ccc(C)cc3)oc2C)cc1	107	106
CCCCNC(=O)CCCn1c(=O)c2ccccc2n(Cc2ccccc2C)c1=O	103	105
COc1ccc(OC)c(CNC(=O)c2c(C)oc3ncn(C)c(=O)c23)c1	108	109
COc1ccccc1CNC(=O)CC(c1ccc(F)cc1)N1Cc2ccccc2C1=O (centres undefined)	101	106
Cc1cccc(N2CCn3c2nc2c3c(=O)n(CCc3ccccc3)c(=O)n2C)c1	109	102
COc1cccc(/C=C/c2nc3ccccc3c(=O)n2-c2ccc(C)c(C)c2)c1OC	114	114
Cc1cccc(N2C(=O)C(CC(=O)Nc3ccc(F)cc3)N(C3CCCC3)C2=O)c1 (centres undefined)	113	107
N#C/C(=C/c1cn(Cc2ccccc2Cl)c2ccccc12)C(=O)Nc1cccc(Cl)c1	106	110
COc1ccc(OC)c(NC(=O)C2CCCN(S(=O)(=O)c3c(C)nn(C)c3C)C2)c1 (centres undefined)	103	105
COc1ccc(C(=O)Nc2ccc3nc4c(c(Nc5ccccc5OC)c3c2)CCCC4)c(OC)c1	103	98
CCn1c(C(=O)N2CCC(C(=O)N3CCN(c4cccc(C)c4C)CC3)CC2)cc2sccc21	104	107
CCOc1ccc(C(=O)c2oc3ccccc3c2NC(=O)c2cc(-c3ccc(Cl)cc3)on2)cc1	104	103
CCOc1ccc(-c2nnc(SCC(=O)NC3CCCCC3)nc2-c2ccc(OCC)c(OC)c2)cc1OC	106	112
CN(C)c1ccc(CNC(=O)C2CCCN(S(=O)(=O)c3ccc4c(c3)CCCC(=O)N4)C2)cc1 (centres undefined)	98	96
Cc1ccc(CNC(=O)c2cnn(-c3ccc(F)cc3F)c2C2CCN(C(=O)OC(C)(C)C)CC2)cc1	107	113
Cc1ccc(NC(=O)c2ccc(CNS(=O)(=O)c3ccc4c(c3)C(C)(C)C(=O)N4C)cc2)cc1C	115	112
CCOC(=O)N1CCC(NC(=O)c2cnn(-c3ccc(F)cc3F)c2C2CCN(C(=O)OC(C)(C)C)CC2)CC1	103	106

The list goes on:
SMILES	PV pol inh	PV pol inh intensity
CCOc1ccc(NC(=O)NC(C)c2c(-n3cccc3)sc(C)c2C)cc1 (centres undefined)	112	113
COc1cccc(CNC(=O)C(=O)Nc2c3c(nn2-c2ccccc2)CSC3)c1	106	105
Cc1ccc(-c2nc3ccccn3c2Nc2ccccc2C)s1	107	110
Cc1cccc(NC(=O)c2ccc3c(c2)CCN3S(=O)(=O)c2ccccc2)c1C	104	107
CCOC(=O)c1cccc(NC(=O)C2CCN(c3nnc(C)c4c(C)n(-c5ccccc5)nc34)CC2)c1	108	107
COc1cc(C)c(C)cc1S(=O)(=O)Nc1cccc(-c2ccc(N3CCOCC3)nn2)c1	106	113
CCN(CC)CCN(C(=O)c1ccco1)c1nc2c(C)cccc2s1	105	104
Cc1cc(C)n(-c2nc3ccccc3nc2Nc2ccc(C(C)C)cc2)n1	105	111
O=C(C1CC1)N1CCc2cc(Br)cc(S(=O)(=O)N3CCN(c4ccccc4)CC3)c21	108	110
CCOC(=O)c1cccc(NC(=O)c2cc(S(=O)(=O)N3CCCC(C)C3)cn2C)c1 (centres undefined)	110	108
Cn1c(-c2ccccc2)cnc1NCc1ccccc1O	105	105
CCc1cccc(C)c1NC(=O)c1cc(S(=O)(=O)N2CCOCC2)cn1C	110	110
CCCN(CCC)CCCNC(=O)c1cn(CC)c2ccc(S(=O)(=O)N(C)C3CCCCC3)cc2c1=O	108	110
CCc1cnc2c(c1SCC(=O)Nc1ccc(Cl)cc1)c(=O)n(C)c(=O)n2C	100	101
Cn1c(=O)c2c(nc(SCC(=O)Nc3ccccc3F)n2Cc2ccc(Cl)cc2)n(C)c1=O	104	111
CNS(=O)(=O)c1cn(CC(=O)Nc2cccc(C(F)(F)F)c2)cc1S(=O)(=O)NC	107	102
COc1ccc(S(=O)(=O)NCCc2sc(C)nc2C)cc1	96	105
Cc1cc(C)n2c(Nc3ccccc3C)c(-c3cccs3)nc2n1	112	111
CCCCOC(=O)c1ccc(OC(=O)c2sc3ncn(Cc4ccccc4Cl)c(=O)c3c2C)cc1	103	94
Cc1c(C(=O)N(C)Cc2ccccc2)sc2nc(-c3ccc(F)cc3)cn12	112	107
CCCCC(=O)OCc1cc(=O)n2nc(C3CC3)sc2n1	103	104
CCc1ccccc1NC(=O)C1CCN(S(=O)(=O)c2cn(C)cn2)CC1	105	112
Cc1ccc(Cl)cc1N1CCN(C(=O)c2cn(C)c3ccc(S(=O)(=O)N(C)C4CCCCC4)cc3c2=O)CC1	107	107
CCC1=Nc2cc(C(=O)NC(C)c3ccccc3)ccc2Sc2ccc(Cl)cc21 (centres undefined)	113	115
Cc1ccc(C(C)C)c(OCC(=O)Nc2cccc(NC(=O)c3ccco3)c2)c1	104	107
COc1ccc2[nH]cc(CCNC(=O)Nc3cccc(F)c3)c2c1	107	109
Cc1nc2nc(NC(=O)CC(C)C)[nH]n2c(=O)c1Cc1ccccc1	103	97
O=C(NC1CCCCC1)c1cc(Nc2cccc(C(F)(F)F)c2)nc2ccccc12	105	106
CCC(C(=O)NC1CCCCC1)n1nc(C)c2sc3ccccc3c2c1=O (centres undefined)	108	107
CCOC(=O)c1c(C)[nH]c(CCC(=O)NCc2ccc(OC)c(OC)c2)c1C	113	118
Clc1ccc2nc(-c3ccc(N4CCOCC4)cc3)c(Nc3ccccc3)n2c1	104	105
COc1cc(-c2nc(-c3cccc(Cl)c3)c(-c3ccccc3)[nH]2)cc(OC)c1OC	108	105
O=C1CSC2(C(=O)N(Cc3ccccc3F)c3ccccc32)N1c1ccc(F)cc1 (centres undefined)	98	103
CCOC(=O)c1c(S(=O)(=O)N2CCC(C(=O)Nc3ccc(F)cc3F)CC2)c(C)n(C)c1C	111	107
COc1cccc(NC(=O)CCNC(=O)Cn2ccc3ccccc3c2=O)c1	109	110
COc1ccc2c(CNC3CCCCCC3)c(C(=O)O)n(Cc3ccccc3F)c2c1	102	102
O=S(=O)(Nc1ccc(-c2ccc(N3CCCC3)nn2)cc1)c1ccc(Cl)cc1	107	111
COc1ccccc1NC(=O)c1sc2nc3n(c(=O)c2c1C)N=C(c1cccc(Br)c1)CS3	102	104
COc1ccc(CCNC(=O)c2cn(C)c3ccc(S(=O)(=O)N(C)C)cc3c2=O)cc1OC	102	104
COc1ccc(-c2cnnn2-c2ccc(NC(=O)c3c(F)cccc3F)cc2)cc1	102	98
Cc1ccc(CNC(=O)CSc2nc3n[nH]c(C)c3c(=N)n2-c2ccccc2Cl)cc1	105	104
Cc1ccc(Cl)cc1N1CCN(C(=O)Cn2cnc3nc4c(cc3c2=O)CCCC4)CC1	107	108
CCOc1ccccc1C(=O)Nc1nnc(COC)s1	101	108
CSc1ccc(CNC(=O)Cn2ccc3cc(S(=O)(=O)N4CCCC4)ccc32)cc1	109	111
COc1ccc(Cl)cc1NC(=O)Cn1cc(C(=O)c2ccc(C)cc2)c(=O)c2ccc(C)nc21	110	121
COc1ccc(NS(=O)(=O)c2ccc(-c3cnc(C4CC4)o3)cc2)cc1Cl	118	125
Cc1ccccc1CNCCCSc1nnnn1-c1ccccc1	107	110
CC(C)Oc1ccc(CNC(=O)C2CCN(c3nc4ccccc4n(C)c3=O)CC2)cc1	106	107
CCOc1ccc(-n2nc3ccc(NC(=O)c4ccc(C)cc4C)cc3n2)cc1	107	106
CCc1cccc(CC)c1NC(=O)c1c(C)oc2ccc(O)c(CN3CCCC3)c12	108	97
O=C(CSc1nccn1Cc1ccc(F)cc1)Nc1ccc2c(c1)OCO2	104	95
COc1ccc(CNC(=O)CCCc2nnc3n(CCC(C)C)c(=O)c4sccc4n23)cc1	120	107
Cc1cccc(NC(=O)c2ccc3c(O)c(S(=O)(=O)c4ccccc4)c(=O)[nH]c3c2)c1C	105	106
CCNC(=O)c1c(NC(=O)c2cc(=O)c3ccc(C)c(C)c3o2)sc2c1CCCC2	103	108
CCCCn1cc(S(=O)(=O)c2ccc(OCC)cc2)c(=O)c2cc(OC)c(OC)cc21	106	108
Cc1ccccc1-c1nc(CNC(=O)Nc2ccccc2)c(C)o1	105	108
CCOc1ccccc1NC(=O)CN1c2ccccc2S(=O)(=O)c2ccccc21	101	107

Screening data as filed in PubChem BioAssay.
